From PubChem BioAssay
N370S GC – inhibits or activates N370S mutant glucocerebrosidase. P04062. N370S GC spleen homogenate, 4MU-glucoside fluorescence. Potency, µM (titrated, usually from 59.4 µM), for inactives: at the top dose activity change, negative = inhibition, most hits filed as inhibitors. 330,000 compounds, 0.092% hits. AID 2101;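 also: 0% = full enzyme activity and -100% = no enzyme basal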
FEN1 inhibitor – inhibitors of human flap endonuclease 1. AID 588795. Recombinant FEN1 flap cleavage, fluorescence, 15 min. 390,000 compounds, 0.35% hits. P39748. Potency, µM (top dose mostly 114 µM), for the others: top-dose activity change, negative = inhibition, usual class: inhibitors; also: nearly all actives have a fitted effect of over 65% in size
Target sequence (P39748 whole entry, looked up): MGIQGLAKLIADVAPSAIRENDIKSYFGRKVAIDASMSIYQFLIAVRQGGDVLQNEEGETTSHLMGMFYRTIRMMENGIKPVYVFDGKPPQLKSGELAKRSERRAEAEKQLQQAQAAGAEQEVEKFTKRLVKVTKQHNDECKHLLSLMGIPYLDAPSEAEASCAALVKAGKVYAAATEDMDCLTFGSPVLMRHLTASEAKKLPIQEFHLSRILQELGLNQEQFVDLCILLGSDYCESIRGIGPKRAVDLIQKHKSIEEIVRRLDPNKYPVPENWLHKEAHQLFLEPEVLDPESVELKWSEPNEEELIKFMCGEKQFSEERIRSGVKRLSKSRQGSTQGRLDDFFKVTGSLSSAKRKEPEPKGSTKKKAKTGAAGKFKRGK
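Compounds are tested as a concentration series against 10 nM FEN1; after a 15 min room-temperature preincubation, 50 nM substrate starts cleavage, with plate reads at 0 and 15 min. Normalized responses are fitted by a Hill equation.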
* hit, by the source's call; ? = inconclusive; / = no result given; & = joins results of further samples; [ ] = remark or other dose. Calls follow the shape of the dose curve; as a rule, active = well fitted curve in the direction sought with a large enough effect; inconclusive = small, poorly fitted or top-dose-only effect, or another doubt; inactive = no such curve, though single readings can be large; an effect the other way counts as inactive or inconclusive. Unless noted, % is scaled to controls: 0 for no effect and ±100 for the full control effect; potency is read from the fitted curve at half-maximal effect. Not all compounds are listed, and most or all hits are left out here.

no.	structure	N370S GC	FEN1 inhibitor
1	O=C(O)CC(NC(=O)C12CC3CC(CC(C3)C1)C2)c1cc([N+](=O)[O-])ccc1Cl (stereo not drawn)	6%	-1%
2	COc1ccc(S(=O)(=O)Nc2cccc(-c3ccc(N4CCCCCC4)nn3)c2)cc1OC	-9%	-18%&-4%
3	COc1ccc(CNC(=O)c2cnn3c(C(F)F)cc(C)nc23)cc1	5%	4%
4	COc1ccc(-n2nc3c(N4CCC(C(=O)NCc5ccccc5)CC4)nnc(C)c3c2C)cc1	-12%	?
5	CCN1CCN(C(=O)CN(c2ccccc2C)S(C)(=O)=O)CC1	-1%	41%[activator]
6	CCOC(=O)c1nnn(-c2nonc2N)c1CNc1ccc(C)c(Br)c1	0%	-5%
7	COCCSc1nnc(NC(=O)Cc2ccc(OC)cc2)s1	8%	10%
8	Cc1cc(NC(=O)c2ccccc2NS(=O)(=O)c2c(C)c(C)cc(C)c2C)no1	9%	0%
9	Cc1c(OCC(=O)N[C@@H](Cc2ccccc2)C(=O)O)ccc2c1oc(=O)c1ccccc12	5%	-20%
10	CCn1cc(C(=O)NCC(=O)NCCCN2CCOCC2)c(=O)c2cc3c(cc21)OCO3	0%	14%
11	Cc1ccc2nc(NC(=O)Cc3cccs3)sc2c1	17%	0%
12	O=C(NCc1ccncc1)Nc1ccccc1Cl	-3%	7%
13	CCCCn1c(C23CC4CC(CC(C4)C2)C3)n[nH]c1=S	?	-2%
14	COc1ccc(Nc2nc(N)nc(CSc3nncn3C)n2)cc1	7%	0%
15	CCN(CC)C(=O)c1ccc2c(c1)N(Cc1ccccc1F)C(=O)c1ccccc1S2=O (stereo not drawn)	/	13%
16	COc1cccc(CNC(=O)CCS(=O)(=O)c2ccc3c(c2)NC(=O)C(C)S3)c1 (stereo not drawn)	-16%	-2%
17	O=C(NC1CCCc2ccccc21)c1ccc(=O)[nH]c1 (stereo not drawn)	-2%	-2%
18	COc1ccc(-n2nc(N)c(C(N)=O)n2)cc1	10%	-4%
19	CN(C)Cc1ccccc1-c1nccc(N(C)C)n1	-5%	/
20	CC(C)n1cc(C(=O)N2CCCC(Nc3ccc(F)c(F)c3)C2)cn1 (stereo not drawn)	-1%	18%
21	Cc1ccnc(SCC(=O)Nc2sc3c(c2C#N)CCCC3)n1	15%	2%
22	Cc1cc(=O)c2cc(Cl)ccc2[nH]1	16%	-8%
23	Cc1ccccc1Cn1cccc1/C=C1/C(=N)N2C=CSC2=NC1=O	?	-4%
24	C=Cn1cc[n+](CC(=O)c2ccc(C)cc2)c1	9%	-2%
25	O=c1c2c(n3nnnc3n1-c1ccccc1)-c1ccccc1CC21CCCC1	-5%	8%
26	COc1ccc(NC(=O)CSCC(=O)N(C)Cc2ccc3c(c2)OCCO3)cc1	/	-5%
27	Cc1ccccc1N=Nc1ccc(O)c2ncccc12	3%	-3%
28	c1ccc(Cn2nnc3c(NCCN4CCOCC4)ncnc32)cc1	18%	-14%
29	Cc1cccc(N2CCN(C(=O)CCn3c(=O)[nH]c4ccccc4c3=O)CC2)c1C	-5%	5%
30	O=C(CN1CCN(c2ccccn2)CC1)N(c1ccccc1)c1ccc2ccccc2c1	-10%	-21%
31	COc1ccc(-c2n[nH]c(=S)n2Cc2ccccc2)cc1OC	-19%	8%
32	Cc1ccc(NC(=O)C(CC(C)C)NC(N)=O)cc1Cl (stereo not drawn)	9%	16%
33	COCc1nnc(NC(=O)CCCOc2ccccc2)s1	5%	8%
34	CCOC(=O)N1CCC(N2CCN(c3ccccc3)CC2)CC1	-17%	-8%
35	CNCCOc1ccccc1-c1ccccc1	10%	-4%
36	C=CC(COCc1ccccc1)N(CC(=O)OC)S(=O)(=O)c1cc(Br)ccc1OC (stereo not drawn)	/	-21%
37	Cc1cc2cc3c(cc2nc1SCC(=O)O)CCC3	6%	8%
38	O=C(CNC(=O)c1ccccc1Br)N/N=C\c1cc([N+](=O)[O-])cc(Br)c1O	-23%	9%
39	CCc1ccc(-c2csc(NC(=O)C3=COCCO3)n2)cc1	/	-4%
40	O=C(NN=C1CCCC1)c1ccc(Br)cc1	2%	6%

Among those listed so far, these contain a thiophene ring, fused or not:
no.	structure	N370S GC	FEN1 inhibitor
11	Cc1ccc2nc(NC(=O)Cc3cccs3)sc2c1	17%	0%
21	Cc1ccnc(SCC(=O)Nc2sc3c(c2C#N)CCCC3)n1	15%	2%

The list goes on.
no.	structure	N370S GC	FEN1 inhibitor
41	CCOC(=O)c1c(C)[nH]c(C)c1S(=O)(=O)N1CCC(c2ccccc2)C1 (stereo not drawn)	-9%	10%
42	C#CC(CC)(CC)NC(=O)c1cc(S(=O)(=O)N2CCCCC2)ccc1N1CCOCC1	1%	2%
43	Cc1ccc(S(=O)(=O)N/N=C2/CC(=O)CC(C)(C)C2)cc1[N+](=O)[O-]	-2%	2%
44	CCN1C[C@@H]2[C@@H]3C(=O)N(Cc4ccccc4)C(=O)[C@@H]3[C@](C)(C(=O)OC)N2C1=NC	/	4%
45	CC1(C)C2CC=C(/C=N/NC(=O)C3CC3)C1C2 (stereo not drawn)	3%	-1%
46	CN(C)c1cc(N)c2ccccc2n1 (tested in a mixture with another compound)	-3%	-6%
47	O=C(COC(=O)CNC(=O)C1CCCCC1)Nc1ccccc1OC(F)F	/	-3%
48	CCOC(=O)Cc1nnc(NC(=O)C(CC)Sc2nc(C)cc(C)n2)s1 (stereo not drawn)	1%	-4%
49	CCOc1cc(C#N)c(NC(=O)c2cccnc2)cc1OCC	6%	0%
50	O=C(NCC1CC1)C1(S(=O)(=O)c2ccccc2)CC=CC1	-6%	1%
51	CCN(C(C)=O)c1nc(CCl)cs1	-10%	-3%
52	CC1CCN(S(=O)(=O)c2ccc3nc(NCc4ccccc4)ccc3c2)CC1	/	-2%
53	CC1(C)Cc2c(cnn2-c2cccc(F)c2)C(NC(=O)c2csnn2)C1 (stereo not drawn)	-9%	-18%
54	CCCCCC(=O)Nc1ccc(N2CCN(S(C)(=O)=O)CC2)cc1	1%	-5%
55	Cc1ccc(CCNC(=O)CCS(=O)(=O)c2ccc3nc(C)sc3c2)cc1	0%	27%
56	C/C(=N/NC(=O)CNC(=O)c1cccnc1)c1ccco1	19%	-1%
57	O=C1NC(c2ccccc2Cl)Nc2ccccc21 (stereo not drawn)	11%	6%
58	CC1CC(C)CN(C(=O)COC(=O)COc2ccccc2C#N)C1 (stereo not drawn)	/	18%
59	COc1cccc(C(=O)NCC(=O)OCC(=O)C(C)(C)C)c1	8%	23%
60	CC1CCN(C(=O)COC(=O)C2CCN(S(=O)(=O)c3ccc(Cl)c(C(F)(F)F)c3)CC2)CC1	-6%	3%
61	CC(/C=C1\SC(=S)N(CCC(=O)Nc2nc(C)cs2)C1=O)=C\c1ccccc1	3%	-14%
62	Cc1ccc(S(=O)(=O)N2CCNC(=O)C2)c(C)c1	0%	1%
63	COc1ccc(Cn2ccc3nc(C)c(C(=O)Nc4ccc(C)c(F)c4)cc3c2=O)cc1	/	4%
64	Cc1ccc(S(=O)(=O)N/N=C/c2cc([N+](=O)[O-])ccc2O)cc1[N+](=O)[O-]	2%	8%
65	CCOc1ccc2nc(NC(=O)Cn3[nH]c(=O)c4ccccc4c3=O)sc2c1	14%	3%
66	C=CCC(C(=O)OC)(C(=O)OC)c1ccc([N+](=O)[O-])cn1	10%	5%
67	C[C@H](NC(=O)c1nc[nH]c1C(=O)N1CCN(c2ccccc2)CC1)c1ccccc1	/	15%
68	O=C(Nc1cc(S(=O)(=O)N2CCCCCC2)ccc1OCC(F)(F)F)C1CCC1	0%	38%[activator]
69	COCC1OS(=O)(=O)NC(CC(=O)SC(C)(C)C)C1C (stereo not drawn)	-8%	-7%
70	COC(=O)c1ccc(NC(=O)CCN2C(=O)NC(C)(C)C2=O)cc1	/	-94%
71	Nc1nc(NCc2ccco2)nc(Nc2cccc(F)c2)c1[N+](=O)[O-]	-5%	-3%
72	CCCOC1CCCN(C(=O)CCc2nnc(Cc3cccc(C)c3)o2)C1 (stereo not drawn)	-3%	-16%
73	Cc1cccc(OCCc2nnc(N)s2)c1C	0%	-8%
74	CC1CN(c2ccc(Oc3ccccc3)cc2)c2nc3c(c(=O)[nH]c(=O)n3C)n2C1 (stereo not drawn)	-18%	6%
75	CCCCCCCCC(=O)N/N=C(\C)c1cccnc1	-1%	3%
76	COc1ccc(Cl)cc1NC(=O)NN1CCN(C)CC1	-2%	-4%
77	COc1cccc(-c2nc(CS(=O)(=O)CC(=O)N3CCN(c4cc(C)ccc4C)CC3)c(C)o2)c1	/	-2%
78	COc1ccccc1NS(=O)(=O)c1ccc(O)c(NC(=S)NCC2CCCO2)c1 (stereo not drawn)	-1%	-14%
79	Cn1c(=O)c([N+](=O)[O-])c(NCc2ccccc2)c2ccccc21	17%	6%
80	Cc1cccc(C#Cc2ccccc2)n1	-14%&2%&3%&30%	-18%&9%
81	O=C(NC1CCCCCC1)C1CCN(c2nc3ccccc3o2)CC1	1%	0%
82	OCc1ccccc1NC(=S)Nc1cccnc1	3%	3%
83	O=C(Nc1ccc(S(=O)(=O)N2CCCCC2)cc1)C1CCCO1 (stereo not drawn)	-3%	1%
84	CCOc1cc(C2CC(=O)Nc3c2c(C)nn3-c2nc(C)cc(C)n2)ccc1O (stereo not drawn)	/	-4%
85	CCS(=O)(=O)c1nc2ccccc2n1Cc1ccccc1Cl	8%	-12%
86	O=C(O)c1nccnc1C(=O)Nc1ccc(Oc2c(Cl)cccc2Cl)nc1	-4%	5%
87	CN=C(Nc1ccc(C(=O)OC)s1)c1ccccc1	-6%	-3%
88	CCOC(=O)C1=C(CC)Nc2ccccc2N=C1NC(=O)c1cccc(S(=O)(=O)N2CCOCC2)c1	/	-11%
89	COCCCNC(=O)c1sc2ncccc2c1-n1cccc1	/	-1%
90	Cc1ccc(C)c(NS(=O)(=O)c2ccc3c4c(cccc24)C(=O)N3)c1	/	-26%
91	CC1(C)C(=O)C2(CCCCC2)C(=O)OC1c1ccc(O)cc1 (stereo not drawn)	-5%	-3%
92	CN(C(=O)CCN1C(=O)C2C3C=CC(C3)C2C1=O)c1ccccc1 (stereo not drawn)	5%	20%
93	CC(C)c1ccc2c(c1)C(=O)NC(C)(C)C2	2%	-8%
94	Cc1noc(C)c1S(=O)(=O)N1CCC(C(=O)N2CCC(N3CCCCC3)CC2)CC1	9%	-2%
95	CCOC(=O)c1c(N)sc2c1CCN(CCc1ccccc1)C2	1%	-5%
96	Cc1nc(SC(C)C(=O)NC2CCCC2)c2ccccc2n1 (stereo not drawn)	/	-5%
97	Cc1nc(N)nc(-c2ccccc2O)n1	0%	1%
98	COc1ccc(-c2noc(CN(C)C(=O)c3ccco3)n2)cc1	-1%	1%

Among those listed so far, these contain a halogen.
no.	structure	N370S GC	FEN1 inhibitor
1	O=C(O)CC(NC(=O)C12CC3CC(CC(C3)C1)C2)c1cc([N+](=O)[O-])ccc1Cl (stereo not drawn)	6%	-1%
3	COc1ccc(CNC(=O)c2cnn3c(C(F)F)cc(C)nc23)cc1	5%	4%
6	CCOC(=O)c1nnn(-c2nonc2N)c1CNc1ccc(C)c(Br)c1	0%	-5%
12	O=C(NCc1ccncc1)Nc1ccccc1Cl	-3%	7%
15	CCN(CC)C(=O)c1ccc2c(c1)N(Cc1ccccc1F)C(=O)c1ccccc1S2=O (stereo not drawn)	/	13%
20	CC(C)n1cc(C(=O)N2CCCC(Nc3ccc(F)c(F)c3)C2)cn1 (stereo not drawn)	-1%	18%
22	Cc1cc(=O)c2cc(Cl)ccc2[nH]1	16%	-8%
32	Cc1ccc(NC(=O)C(CC(C)C)NC(N)=O)cc1Cl (stereo not drawn)	9%	16%
36	C=CC(COCc1ccccc1)N(CC(=O)OC)S(=O)(=O)c1cc(Br)ccc1OC (stereo not drawn)	/	-21%
38	O=C(CNC(=O)c1ccccc1Br)N/N=C\c1cc([N+](=O)[O-])cc(Br)c1O	-23%	9%
40	O=C(NN=C1CCCC1)c1ccc(Br)cc1	2%	6%
47	O=C(COC(=O)CNC(=O)C1CCCCC1)Nc1ccccc1OC(F)F	/	-3%
51	CCN(C(C)=O)c1nc(CCl)cs1	-10%	-3%
53	CC1(C)Cc2c(cnn2-c2cccc(F)c2)C(NC(=O)c2csnn2)C1 (stereo not drawn)	-9%	-18%
57	O=C1NC(c2ccccc2Cl)Nc2ccccc21 (stereo not drawn)	11%	6%
60	CC1CCN(C(=O)COC(=O)C2CCN(S(=O)(=O)c3ccc(Cl)c(C(F)(F)F)c3)CC2)CC1	-6%	3%
63	COc1ccc(Cn2ccc3nc(C)c(C(=O)Nc4ccc(C)c(F)c4)cc3c2=O)cc1	/	4%
68	O=C(Nc1cc(S(=O)(=O)N2CCCCCC2)ccc1OCC(F)(F)F)C1CCC1	0%	38%[activator]
71	Nc1nc(NCc2ccco2)nc(Nc2cccc(F)c2)c1[N+](=O)[O-]	-5%	-3%
76	COc1ccc(Cl)cc1NC(=O)NN1CCN(C)CC1	-2%	-4%
85	CCS(=O)(=O)c1nc2ccccc2n1Cc1ccccc1Cl	8%	-12%
86	O=C(O)c1nccnc1C(=O)Nc1ccc(Oc2c(Cl)cccc2Cl)nc1	-4%	5%
